Yeast UUG start = modulators of yeast start codon fidelity, primary screen, whole organism, S. cerevisiae, single point, plate reader | AID 602363, 2012 | activity score, % at 18.7 µM | hit rate 0.13% among 350,000 | S. cerevisiae UUG-firefly luciferase reporter, luminescence/redox ratio;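 active = replicate mean at a twofold rise or more, about +100% in these data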;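 note: firefly luciferase made from a UUG start codon reports start codon fidelity; reporter light over untreated wells divided by growth signal over untreated wells; some hits fall short of that in this replicate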
Rce1 inhib = yeast Rce1p protease inhibitors, primary screen, biochemical, fluorescence, cell-free homogeneous; CAAX prenyl protease 2 (Saccharomyces cerevisiae (strain ATCC 204508 / S288c)), Q03530; yeast membranes, quenched prenylated peptide cleavage fluorescence; calls only; hit rate 0.27% among 290,000; AID 2563, 2010;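 active = fall in fluorescence gain of 50% or more versus controls, with final raw signal at or below 3038400; inconclusive = same 50% fall but final raw signal above 3038400; inactive = fall in fluorescence gain under 50%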;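 note: plate controls were neutral control wells for no effect and wells lacking membranes for full effect; tested at 10 µM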
CSC inhib = cancer stem cell viability inhibitors, primary screen, luminescence; cancer stem cell-like cells viability; inhibition, % at 7.5 µM; hit rate 1.1% among 300,000; AID 2717, 2010;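 active = mean at 75% or more and at least half the replicates too; inconclusive = mean and replicates disagree; tested in HMLE shEcad cells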;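 note: 0% = median of negative and 100% = median of positive control wells; the first replicate is given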
PABP FP inh = PABP poly(A) RNA binding inhibitors, primary screen, biochemical, fluorescence polarization, uHTS; Polyadenylate-binding protein 1 (Homo sapiens), P11940; inhibition, % at 35 µM; hit rate 1% among 290,000; AID 2014, 2009;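 active = 50% or more with normal probe brightness, or confirmed in later tests; inconclusive = above 50% with abnormal brightness, or retests that disagree; inactive = below 50% or failed in later tests; about a fifth of its hits are not listed in these tables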;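 note: calls also rest on retests at 20 µM and on dose response follow-up; controls were probe without protein and protein plus probe with vehicle; some compounds called inactive have numbers as strong as hits; many hits fall short of the cut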
Target sequence (P11940 whole entry, looked up): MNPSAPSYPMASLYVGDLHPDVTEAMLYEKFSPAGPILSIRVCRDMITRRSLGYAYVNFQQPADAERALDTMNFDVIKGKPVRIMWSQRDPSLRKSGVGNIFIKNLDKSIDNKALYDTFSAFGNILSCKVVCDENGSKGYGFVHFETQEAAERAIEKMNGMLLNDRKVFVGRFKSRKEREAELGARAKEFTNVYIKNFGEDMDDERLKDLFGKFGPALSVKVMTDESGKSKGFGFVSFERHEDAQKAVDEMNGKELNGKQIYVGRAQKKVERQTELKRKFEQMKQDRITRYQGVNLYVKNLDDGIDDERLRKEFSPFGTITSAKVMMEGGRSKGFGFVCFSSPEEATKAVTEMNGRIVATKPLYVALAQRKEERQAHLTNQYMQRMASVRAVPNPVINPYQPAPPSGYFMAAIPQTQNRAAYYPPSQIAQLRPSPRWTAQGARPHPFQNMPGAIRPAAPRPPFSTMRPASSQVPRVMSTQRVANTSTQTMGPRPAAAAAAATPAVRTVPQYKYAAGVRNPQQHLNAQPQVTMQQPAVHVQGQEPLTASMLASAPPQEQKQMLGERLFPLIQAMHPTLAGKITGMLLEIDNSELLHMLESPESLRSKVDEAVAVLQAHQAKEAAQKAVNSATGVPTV
eIF4H inh = human eIF4H binding inhibitors, primary screen, translation initiation inhibitor project, biochemical, uHTS, fluorescence polarization; Eukaryotic translation initiation factor 4H (Homo sapiens), Q15056; eIF4H fluorescence polarization binding assay; inhibition, % at 35 µM; hit rate 0.94% among 290,000; AID 2012, 2009;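 active = 50% or more with normal probe brightness, or confirmed in later tests; inconclusive = above 50% with abnormal brightness, or retests that disagree; inactive = below 50% or failed in later tests; about a fifth of its hits are not listed in these tables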;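 note: calls also rest on retests at 20 µM and on dose response follow-up; 0% = protein and probe with vehicle and 100% = probe without protein; strong numbers were not always called active; many hits fall short of the cut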
HIV Env fusion = inhibitors of HIV-1 Env-driven cell-cell fusion, primary screen, HeLa-JRFL effector, CEM21 target cells, luciferase | inhibition, % at 12.3 µM | hit rate 1.1% among 360,000;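 active = mean replicate inhibition score of at least 50 and every replicate individually at or above 50; inconclusive = only one of the two criteria met; inactive = mean below 50 and not all replicates reaching 50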;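 note: 0% = plate neutral controls and 100% = maraviroc near 300 nM; one replicate is shown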
MT1-MMP act inh = blockers of MT1-MMP proenzyme processing, primary screen, HT1080 RFP-PRO-GFP cells, GFP/RFP fluorescence; Matrix metalloproteinase-14 (Homo sapiens), P50281; GFP/RFP ratio change, % at 20 µM; GFP/RFP ratio fluorescence, overnight; percent of plate control window, DMSO zero; hit rate 0.061% among 360,000; AID 651647, 2012;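 active = GFP/RFP ratio change of at least 30% with cell ATP level not reduced by more than half and red fluorescence within 50% of control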; note: strong numbers were not always called active
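Assay system: HT1080 cells carrying an RFP-PRO-GFP reporter | Dosing: Single dose of 20 µM compound, 1% DMSO final | Incubation: Cells overnight before dosing, compound overnight, 37 °C, 5% CO2 | Evaluation: GFP/RFP fluorescence ratio | Control set: DMSO and RFP-L50D-GFP cell wells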
eIF4H inh retest = further read-out of eIF4H inh, marked with its call; inhibition, %; compound at 20 µM; confirmation average;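 mean of two retest wells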
PABP FP inh retest = recorded beside PABP FP inh, whose call it bears; inhibition, %; compound at 20 µM; confirmation repeats;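 mean of two retest wells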
MT1-MMP act inh RFP = also measured in MT1-MMP act inh; calls as there; RFP signal change, %; measured here: RFP expression control read;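 0 = vehicle wells; hits needed this value within 50% of zero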
* hit, by the source's call; i = inactive; ? = inconclusive; · = no result given.

SMILES	Yeast UUG start	Rce1 inhib	CSC inhib	PABP FP inh	eIF4H inh	HIV Env fusion	MT1-MMP act inh	MT1-MMP act inh RFP	others
O=C(O)c1cccc(N2CCCC2)c1	-2	i	2	3	-2	-6	4	4
C/C=C/C(=O)N1CC2(CC(c3cccc(NC(=O)CCCCC)c3)=NO2)C[C@H]1C(N)=O (stereo not given in full)	·	i	·	-10	10	·	·	·
CCOc1ccc(NC(=O)CN2CCN(c3ccc(F)cc3)CC2)cc1S(=O)(=O)N1CCCC1	-8	·	·	·	·	0	4	0
CC(C)c1ccc(-c2nnn(CCC(=O)O)n2)cc1	-33	i	-9	15	-6	·	6	8
CCOc1ccc(S(=O)(=O)N(CC(=O)O)c2ccc(C)cc2)cc1	-4	i	-14	4	-6	·	5	4
O=S(=O)(NC1c2cccc3cccc(c23)C1Sc1ncccn1)c1ccc(Cl)cc1 (stereo not given)	·	i	36	13	11	27	-6	-8
O=C(CCNC(=O)c1ccc(Br)cc1)Nc1ccccc1N1CCCCC1	11	i	-5	·	·	·	1	-1
C/C(Cn1nnc([N+](=O)[O-])n1)=N\NC(=O)c1ccc(Cl)c(Cl)c1	·	i	9	-4	-6	·	-6	-5
O=C(CCCCC(=O)OC1CCCCC1)OC1CCCCC1	-10	·	·	·	·	8	-2	10
O=C(Cc1c(C(=O)O)[nH]c2ccccc12)NCCN1CCN(c2cccc(Cl)c2)CC1	-6	i	-10	-7	-8	·	1	4
CCCN(CC(=O)Nc1ccccc1OC)C(=O)c1cc(-c2ccccc2)nn1-c1ccccc1	13	·	18	·	·	·	-7	-2
COc1ccc(-c2nc3c(c(SCC(=O)Nc4cccc(O)c4)n2)Cc2c(CO)cnc(C)c2O3)cc1	-14	i	14	2	86	2	5	1	eIF4H inh retest=23;PABP FP inh retest=6
CN(C)c1ccc(NC(=O)CSc2n[nH]c(-c3ccco3)n2)cc1	·	i	7	4	-8	5	3	7
Cc1c(C(=O)NC2CCCCC2)oc2c1C(=O)CC(C)(C)C2	-2	i	29	-4	-8	-24	-7	-5
CCc1ccc(N2CCN(C(=O)N3CCOCC3)CC2)cc1	·	i	-9	-18	-5	4	2	4
CC(C)OC(=O)/C(=C\c1ccccc1)NC(=O)c1ccccc1	15	i	-11	19	-15	28	5	4
CSc1cccc(N2CC(C(=O)Nc3cccc(S(=O)(=O)N4CCCC4)c3)CC2=O)c1 (stereo not given)	-1	i	-13	·	·	116*	-3	-16
CC(Sc1ccc(S(=O)(=O)N2CCN(C)CC2)cn1)C(=O)NC1(C#N)CCCCC1 (stereo not given)	-12	·	·	·	·	0	-1	-1
CC(=O)N1CCN(S(=O)(=O)c2ccc(C)cc2)C1C (stereo not given)	2	i	-13	·	·	2	-6	4
Cc1ccc(-c2nn(-c3ccccc3)cc2C(=O)Nc2ccc(C)c(S(=O)(=O)N3CCOCC3)c2)cc1	·	i	8	-9	2	4	-4	-4
CC(=O)Nc1ccc(NC(=O)C2CCCN2C(=O)NCc2ccccc2)cc1 (stereo not given)	1	i	-14	5	-6	-16	4	3
CCCCC1(O)CC(C(F)(F)F)=NN1C(=O)COc1ccccc1 (stereo not given)	-7	i	11	4	-1	32	-4	-5
COc1ccc(-n2c(CNC(=O)c3ccc(S(=O)(=O)N4CCCC4)cc3)n[nH]c2=S)cc1	-26	i	-17	-13	-14	-12	2	1
COc1ccc(Cn2ccnc2SCC(=O)Nc2ccc(F)cc2F)cc1	-11	·	·	·	·	0	3	0
Cc1cc(C(C)(C)C)cc(C)c1N	1	i	5	11	3	22	-5	3
CCOCCCNC(=O)C(c1ccc(OC)cc1)N(Cc1cccs1)C(=O)CNC(C)=O (stereo not given)	·	i	-2	-2	-4	14	1	4
CNC(=S)N/N=C/c1cn(CCOc2cccc(OC)c2)c2ccccc12	·	i	49	4	-3	-13	-8	-12
Cc1cccc(CSCc2ccc(C(=O)NC(C)C)o2)c1	-18	i	·	4	-9	10	0	-8
CSC(=NS(=O)(=O)c1ccc(C)cc1)SC	-10	i	·	-4	-2	-89	1	-1
COC(=O)c1c(NC(=O)Cn2nc(C(F)F)cc2C(F)F)sc(C)c1C	-9	i	17	-7	5	6	0	-3
Cc1cccc(C(=O)NCC(=O)NNC(=O)c2ccccc2O)c1	-13	i	0	·	·	0	-1	5
Clc1ccc(-n2cc(COCc3ccccc3)nn2)cc1	·	i	-2	-10	2	-13	-3	-3
O=Cc1c(N2CCN(c3cccc(Cl)c3)CC2)nc2ccccn2c1=O	6	i	20	-1	0	-75	-4	-7
CC(=O)CSc1nc2ccccc2o1	-15	·	-3	6	-1	-80	-1	2
Cc1ccc(CN(C)C[C@H]2OCc3cnnn3CCCC(=O)N([C@@H](C)CO)C[C@@H]2C)cc1	-5	·	·	·	·	-3	0	5
CC(C(=O)Nc1ccc(S(=O)(=O)N2CCCCC2)cc1)N1CCN(c2ccccn2)CC1 (stereo not given)	·	i	-13	2	1	·	·	·
CN1CCN(C(=O)c2cccn(Cc3c(Cl)cccc3Cl)c2=O)CC1	1	i	-15	-4	-4	-7	-1	-1
Cc1cc(C)n(CCC(=O)N/N=C/c2ccccc2O)n1	-23	i	-12	-1	8	·	5	6
CCOc1ccc(NC(=O)CCCNC(=O)Cn2cnc3sc(C)c(C)c3c2=O)cc1	-20	i	-14	3	-8	-3	-3	-2
O=C(CCC1CCCCC1)Nc1cccnc1	-6	·	9	76	-5	-19	-4	-2	eIF4H inh retest=-9;PABP FP inh retest=-1
O=C1CC(=O)Nc2cc(S(=O)(=O)NCc3cccs3)ccc2N1	-24	i	0	-7	-3	-8	1	4
O=S(=O)(NC1CCCCCC1)c1cccc2cccnc12	-6	i	-6	-3	-1	0	-2	-2
CNC(=O)N(O)C1N(/N=C/c2cccnc2)C(=S)SC1(C)C (stereo not given)	·	i	-11	-1	5	-9	-2	0
Cc1cc(-c2ccc(C(C)C)c(S(=O)(=O)N3CCN(c4ccccc4)CC3)c2)on1	6	i	-17	-2	1	-200	-6	-15
CC(=O)c1cc2cc(O)ccc2o1	-3	?	4	11	-4	-38	-1	2

By substructure, the entries above with a thiophene ring, fused or not
SMILES	Yeast UUG start	Rce1 inhib	CSC inhib	PABP FP inh	eIF4H inh	HIV Env fusion	MT1-MMP act inh	MT1-MMP act inh RFP	others
CCOCCCNC(=O)C(c1ccc(OC)cc1)N(Cc1cccs1)C(=O)CNC(C)=O (stereo not given)	·	i	-2	-2	-4	14	1	4
COC(=O)c1c(NC(=O)Cn2nc(C(F)F)cc2C(F)F)sc(C)c1C	-9	i	17	-7	5	6	0	-3
CCOc1ccc(NC(=O)CCCNC(=O)Cn2cnc3sc(C)c(C)c3c2=O)cc1	-20	i	-14	3	-8	-3	-3	-2
O=C1CC(=O)Nc2cc(S(=O)(=O)NCc3cccs3)ccc2N1	-24	i	0	-7	-3	-8	1	4

(cont.)
SMILES	Yeast UUG start	Rce1 inhib	CSC inhib	PABP FP inh	eIF4H inh	HIV Env fusion	MT1-MMP act inh	MT1-MMP act inh RFP	others
Nc1nc(-c2ccccc2)nn1C(=O)Cc1ccccc1	-18	i	-5	-12	-4	·	3	3
Cn1c(SCC(=O)NC2CCCCCC2)nnc1-c1cccs1	-3	i	-7	-5	2	·	-4	0
O=C1CSC(c2cccc([N+](=O)[O-])c2)N1c1ccccc1 (stereo not given)	-7	i	-2	-24	6	13	4	7
O=C(Nc1ccc2c(c1)CN(Cc1ccc(CO)o1)CC2)c1ccc(C(F)(F)F)cc1	-1	i	6	2	-6	-4	-6	-12
CCOC(=O)c1nc(Nc2ccccc2CC)c2ccccc2n1	-6	i	-12	1	-8	24	-2	-6
CN(C)S(=O)(=O)c1cccc(NC(=O)C2Cc3ccccc3CN2C(=O)c2ccccc2)c1 (stereo not given)	-3	i	·	3	12	4	-5	0
COC(=O)C(NC(=O)c1ccc(F)cc1)(Nc1ncc(S(=O)(=O)c2ccc([N+](=O)[O-])cc2)s1)C(F)(F)F (stereo not given)	-1	i	16	9	6	127*	-6	-11
COc1ccc(N2CCN(C(=S)Nc3cc(C)cc(C)c3)CC2)cc1	-5	i	-20	2	1	-43	6	6
CC1CCc2cc(F)cc3c(O)c(C(=O)NCC4CCCO4)c(=O)n1c23 (stereo not given)	-5	i	25	-2	-10	4	-7	0
O=C(O)c1ncc(-c2ccccc2)cn1	-19	i	-19	-2	-10	-6	-4	0
Cc1nnc(N2CCCC(C(=O)NCc3cccc(F)c3)C2)c2nn(-c3ccccc3)c(C)c12 (stereo not given)	-6	i	-5	3	-1	18	-18	-7
O=S(=O)(c1ccc(Cl)cc1)n1cnc2ccccc21	-9	i	-18	3	1	12	4	4
Cc1ccc(-c2cc(C(=O)Nc3c(C)n(C)n(-c4ccccc4)c3=O)[nH]n2)c(O)c1	7	i	-5	-11	-3	-47	2	4
Oc1c(CN2CCN(c3ccccc3)CC2)cc(Br)c2cccnc12	-26	i	114*	5	11	-52	3	-16
Cc1ccccc1OCC(=O)NCCCNC(=O)c1ccncc1	-8	i	·	-1	0	-2	2	5
CCCCn1cnc2c(SCCc3ccccc3)nc(N)nc21	-19	·	·	·	·	-2	5	-4
CCc1ccc(NC(=O)Cn2nc(C)n3cccc3c2=O)cc1	11	i	3	3	-16	0	-2	1
Cc1ncc[nH]1	-1	·	1	·	·	·	0	6

Structures from the list above that have a CF3 group, in the order listed:
SMILES	Yeast UUG start	Rce1 inhib	CSC inhib	PABP FP inh	eIF4H inh	HIV Env fusion	MT1-MMP act inh	MT1-MMP act inh RFP	others
CCCCC1(O)CC(C(F)(F)F)=NN1C(=O)COc1ccccc1 (stereo not given)	-7	i	11	4	-1	32	-4	-5
O=C(Nc1ccc2c(c1)CN(Cc1ccc(CO)o1)CC2)c1ccc(C(F)(F)F)cc1	-1	i	6	2	-6	-4	-6	-12
COC(=O)C(NC(=O)c1ccc(F)cc1)(Nc1ncc(S(=O)(=O)c2ccc([N+](=O)[O-])cc2)s1)C(F)(F)F (stereo not given)	-1	i	16	9	6	127*	-6	-11

The list is partial; the hit share may differ from the screen's.
